Screening results from PubChem.
2A Renilla – lowers the Renilla signal of an FMDV 2A StopGo reporter; 120,000 tested, 0.32% active; Potency, µM (doses to about 57.5 µM), for the others: top-dose signal change, negative = less light; AID 1745857; HEK cells with a luciferase reporter of 2A StopGo recoding; active means well fitted falling curve with a large enough effect; inconclusive means small, poorly fitted or top-dose-only effect; inactive means no such curve, though single readings can be large or run the other way; further: nearly all actives have a fitted effect of over 55% in size; overnight with compound
StopGo FLuc – FMDV 2A StopGo reporter, firefly signal; HEK cells with a luciferase reporter of 2A StopGo recoding; Potency, µM (titrated, usually from 57.5 µM), inactives show top-dose signal change, negative = less light; 120,000 tested, 0.23% active; active = well fitted falling curve with a large enough effect; inconclusive = small, poorly fitted or top-dose-only effect; inactive = no such curve, though single readings can be large or run the other way; further: nearly all actives have a fitted effect of over 60% in size; overnight with compound
Starred values were filed as active, the others as inactive; ? = inconclusive; & = joins results of further samples; [ ] = remark or other dose. On the % scale 0 is the no-effect control and ±100 the full control effect; potency means the concentration at half of the fitted maximal effect. Outcome played no part in choosing rows; about 0.53% have a hit in one of these screens.

Preview, 3 compounds:
SMILES | 2A Renilla | StopGo FLuc
COc1cccc(OC)c1Cn1nnc2c(=O)[nH]c(C3CCN(C(=O)c4ccccc4)CC3)nc21 | -22% | -19%
Cc1cc(C)c2c(=O)cc(C(=O)Nc3ccc(S(=O)(=O)N(C)c4ccccc4)cc3)oc2c1 | 3% | -6%
CC(C)C(=O)NC(Nc1ccc(Cl)cc1)C(Cl)(Cl)Cl (stereo not given) | ? | ?

The list itself, from the first entry:
SMILES | 2A Renilla | StopGo FLuc
COc1cccc(OC)c1Cn1nnc2c(=O)[nH]c(C3CCN(C(=O)c4ccccc4)CC3)nc21 | -22% | -19%
Cc1cc(C)c2c(=O)cc(C(=O)Nc3ccc(S(=O)(=O)N(C)c4ccccc4)cc3)oc2c1 | 3% | -6%
CC(C)C(=O)NC(Nc1ccc(Cl)cc1)C(Cl)(Cl)Cl (stereo not given) | ? | ?
CCOc1ccc(NC(=O)c2ncoc2-c2cccc(Cl)c2)cc1 | -6% | 1%
CC(C)NC(=O)c1ccc(I)cc1 | 3% | 0%
CCOc1ccc(S(=O)(=O)N(CC)CC(=O)NCC2CCCO2)cc1Cl (stereo not given) | 38%[activator] | 5%
O=C(COC(=O)c1cc(C2CC2)nn1-c1ccccc1)Nc1ccccc1 | -10% | -5%
CC(OC(=O)c1ccc2ccccc2n1)C(=O)c1ccc(Cl)cc1 (stereo not given) | 37%[activator] | 87%[activator]
COc1cc(OC)c2c(C)c(CC(=O)N3CCC(O)(c4ccc(Cl)cc4)CC3)c(=O)oc2c1 | 5% | 11%
CCOc1cc(C(=O)Nc2ccc3oc(-c4ccc(CC)cc4)nc3c2)cc(OCC)c1OCC | -17% | -5%
Cc1cccc(/C=C(/C(=O)N2CCCC(C)C2)c2cccs2)c1 (stereo not given) | ? | ?
CCOc1ccc(NC(=O)CN2C(=O)CC(C)Sc3ccccc32)cc1 (stereo not given) | 12% | -6%
CCCS(=O)(=O)NC(C)C(=O)O (stereo not given) | 7% | 5%
CSc1nsc(SCC(=O)Nc2ccccc2F)n1 | -1% | 30%
Cn1cnc2c1c(=O)n(Cc1ccccc1F)c(=O)n2C | 12% | 27%
CCOCCCNC(=O)c1ccc(NC(=O)N2CCCCc3ccccc32)cc1 | 3% | -8%
CCc1cc2c(cc3c(=O)n(CC(=O)N4CCC(C)CC4)nc(CC)n32)s1 | 8% | 0%
COc1cccc(CN2c3ccccc3-c3nc(SCC(=O)Nc4ccccc4Cl)ncc3S2(=O)=O)c1 | 6% | -4%
Cc1cccc(CSc2nc(-c3cccc(C)c3)nc3c2Cc2c(CO)cnc(C)c2O3)c1 | 7% | -12%
CCC(C)NC(=O)c1ccc(Cn2c(=O)c3cccn3c3cccnc32)cc1 (stereo not given) | -6% | -9%

Sorted by molar mass (lowest first): some entries from above
SMILES | 2A Renilla | StopGo FLuc
CCCS(=O)(=O)NC(C)C(=O)O (stereo not given) | 7% | 5%
CC(C)NC(=O)c1ccc(I)cc1 | 3% | 0%
CC(C)C(=O)NC(Nc1ccc(Cl)cc1)C(Cl)(Cl)Cl (stereo not given) | ? | ?
CCC(C)NC(=O)c1ccc(Cn2c(=O)c3cccn3c3cccnc32)cc1 (stereo not given) | -6% | -9%
Cc1cccc(CSc2nc(-c3cccc(C)c3)nc3c2Cc2c(CO)cnc(C)c2O3)c1 | 7% | -12%
CCOc1cc(C(=O)Nc2ccc3oc(-c4ccc(CC)cc4)nc3c2)cc(OCC)c1OCC | -17% | -5%

Continuation.
SMILES | 2A Renilla | StopGo FLuc
Cc1ccc(N(CC(=O)O)CC(=O)O)cc1 | -6% | 28%
O=C(CN(CC1CC1)C1CC1)NC(=O)NCc1ccco1 | -1% | 8%
CCOc1ccc(NC(=O)c2c(NC(=O)Cc3ccccc3)sc3c2CCC(C)C3)cc1 (stereo not given) | -9% | -3%
Cc1nc(-c2ccncc2)[nH]c(=O)c1CC(=O)N(C)C1CCCC1 | -4% | 1%
NS(=O)(=O)c1ccc(N/N=C/c2ccco2)c([N+](=O)[O-])c1 | -30% | 17%
O=C(NC1CCS(=O)(=O)C1)c1cc(-c2ccco2)on1 (stereo not given) | 12% | 36%[activator]
Cc1ccc(NC(=O)c2cccc3c(=O)c4c([nH]c23)CCCC4)c(C)c1 | -7% | 16%
CC(C)(C)c1ccc(O)c(NC(=O)c2cc[n+]([O-])cc2)c1 | 5% | -1%
COc1ccc(NC(=O)c2sc3nc4c(c(-c5ccco5)c3c2N)CCCCC4)c(OC)c1 | 4% | -8%
CCC1=Nc2cc(C(=O)NCc3ccccc3OC)ccc2Sc2ccc(Cl)cc21 | 48%[activator] | -14%
COc1ccc(NC(=O)c2ncoc2-c2ccc(OC)c(OC)c2)cc1 | 2% | 48%[activator]
Cn1cc(C(=O)N2CCN(c3cccc(C(F)(F)F)c3)CC2)c2c3ccccc3n(C)c2c1=O | 37%[activator] | -7%
CCOc1ccccc1NC(=O)C1CCN(S(=O)(=O)c2ccc3c(c2)CCCN3C(C)=O)CC1 | 36%[activator] | 4%
COCCN(CCOC)C(=O)c1cc(-c2cccs2)nc2ccccc12 | 78%[activator] | 22%
CC1CCN(CCNC(=O)c2n[nH]c(=O)c3ccccc23)CC1 | -11% | -5%
COc1ccc(S(=O)(=O)c2cn(Cc3ccccc3)c3cc(N4CCCC4)c(F)cc3c2=O)cc1 | 49%[activator] | 15%
Nc1cccc(OCc2ccccc2)c1 | 3% | 158%[activator]
Cc1cc(C)c(NC(=O)CSc2nc3c(c(=O)[nH]2)CCCC3)c(C)c1 | -11% | 53%[activator]
CC(C)SCC(=O)Nc1cc(C(C)(C)C)ccc1O | 170%[activator] | 0%
COc1ccc(CC(=O)NCc2nc3cccnc3n2Cc2ccc(C)cc2)cc1 | 3% | -6%

Next section
SMILES | 2A Renilla | StopGo FLuc
COc1ccc(C2C(C#N)=C(SCc3ccccc3)NC3=C2C(=O)CC(C)(C)C3)cc1OC (stereo not given) | 6% | -1%
COc1cccc(/C=C2\Oc3cc(OC(=O)C(C)(C)C)ccc3C2=O)c1OC | 12% | 124%[activator]
Cc1nc2sccn2c(=O)c1S(=O)(=O)Nc1cc(C(F)(F)F)ccc1Cl | 141%[activator] | -27%
COc1cc(Cl)c(C)cc1NC(=O)C1CCCN(c2ncnc3onc(-c4ccc(F)cc4)c23)C1 (stereo not given) | 10% | -5%
Cc1cc2oc(=O)cc(CN3CCc4ccccc43)c2cc1Cl | -7% | -5%
CCCCN(C)C(=O)C1CCCN(c2ncnc3onc(C)c23)C1 (stereo not given) | 2µM* | ?
COc1ccc(Cl)cc1NC(=O)CCc1ncc(-c2ccccc2F)o1 | -4% | 17%
CCn1c(=O)c(=O)n(CC(=O)NCCN2CCN(c3cccc(Cl)c3)CC2)c2ccccc21 | -7% | -9%
COc1ccc(-c2onc(C)c2C)cc1S(=O)(=O)NCc1ccc(Br)cc1 | 9% | -7%
CCN1CCN(CCCNC(=O)c2cnn(-c3ccccc3)c2C2CCN(C(=O)OC(C)(C)C)CC2)CC1 | -7% | -16%
COc1cc2[nH]c(C(=O)N(C)C3CCS(=O)(=O)C3)cc2c(OC)c1OC (stereo not given) | 4% | 5%
CCc1ccccc1N(C)C(=O)c1cn(-c2cccc(OC)c2)c(=O)c2ccccc12 | 4% | -10%
Cc1cc(C(=O)NC(C)c2cccc(C(F)(F)F)c2)c(C)o1 (stereo not given) | -1% | 0%
O=C(Nc1cccc(C(F)(F)F)c1)C1CCN(c2nnc(-n3cccc3)s2)CC1 | -14% | -18%
O=C(O)CC1(CC(=O)NCCN2CCOCC2)CCCC1 | -5% | 9%
Cc1ccccc1CN1C(=O)c2ccccc2Sc2ccc(C(=O)N3CCOCC3)cc21 | 31%[activator] | -25%
Cn1c(=O)c2c(nc(N3CCC(C(N)=O)CC3)n2Cc2ccccc2)n(C)c1=O | -2% | 13%
COCCn1c(C2CC(=O)N(c3cc(Cl)ccc3OC)C2)nc2ccccc21 (stereo not given) | 0% | 2%
O=C(OCc1cc(=O)oc2cc(O)ccc12)C1CCCC1 | -4% | 1%
Cc1ccccc1NC(=O)c1nc(-c2ccncc2)no1 | 29% | 39%[activator]

Next compounds follow:
SMILES | 2A Renilla | StopGo FLuc
CC(C)OCCCNC(=O)c1ccc(Cn2c(=O)c3cccn3c3cccnc32)cc1 | -10% | 0%
COC(=O)c1ccc(CCN)cc1 | -6% | 14%
Cc1ccccc1OCc1ccc(-c2nc(C#N)c(NCc3cccnc3)o2)o1 | ? | ?
O=S(=O)(c1ccc(Cl)cc1)c1nc(-c2cccs2)oc1SCc1ccc(F)cc1 | 202%[activator] | -8%
COc1ccc(CNC(=O)Cn2c(SCC(=O)N(C)c3ccccc3)nc3ccccc32)cc1 | 90%[activator] | 1%
O=C(c1ccccc1)N1CCN(C(=O)c2cc(-c3ccccn3)nc3ccccc23)CC1 | 4% | 16%
O=C(NC1CCCCCC1)C1(Cc2nc3ccccc3s2)CCCC1 | 52%[activator] | ?
Cc1cccc(C(=O)Nc2nnc(S(=O)(=O)N(C)Cc3ccccc3)s2)c1 | 14% | -17%
CCC(C)NC(=O)/C(C)=C/c1ccccc1 (stereo not given) | 3% | 88%[activator]
O=Cc1ccc(OCCN2CCCC2)cc1 | 7% | 24%
CCOc1ccc(NC(=O)Cc2ccccc2)c2cccnc12 | -2% | 12%
CCN(CC)C(=O)Cn1cc(SCC(=O)Nc2cccc(F)c2)c2ccccc21 | -12% | -22%
O=[N+]([O-])c1cc(Nc2ccccc2)c(/C=N/Nc2ccccc2)c([N+](=O)[O-])c1 | -22% | -12%
COc1cccc(OC)c1C(=O)Nc1ccc(-c2nc3ccccc3o2)cc1 | 4% | 37%
Cc1ccc(NC(=O)CSc2nc(CN(C)C)nc3ccccc23)c(C)c1 | -10% | -15%
Cc1ccccc1C(=O)N1CCC(C(=O)NCC(F)(F)F)CC1 | 0% | 4%
S=C(N/N=C/C1CC=CCC1)NC1CCCCC1 (stereo not given) | 0% | 0%
CCN1CCN(C(=O)Nc2ccc(C)cc2C)CC1 | -6% | 69%[activator]
CCN(c1ccc(-c2csc(C3CC3)n2)cc1)S(C)(=O)=O | -25% | 0%
COc1ccc(Nc2nc(N)nc(CSc3nc4ccccc4s3)n2)cc1 | ? | ?

Other records
SMILES | 2A Renilla | StopGo FLuc
CCCCCCCC(=O)OCC(O)CO (stereo not given) | -12% | -9%
Cc1cccc(N2CCN(C(=O)Cc3c(C(=O)O)c(C)cn3C)CC2)c1C | 3% | -16%
c1ccc(COc2ccc(CNCC3CCCO3)cc2)cc1 (stereo not given) | -7% | 72%[activator]
O=S(=O)(NCc1cn(Cc2ccccc2)nn1)c1ccccc1Br | 45%[activator] | 0%
Cc1ccc(S(=O)(=O)c2nnn3c2nc(N2CCCC2)c2sccc23)cc1 | -15% | -16%
CCCNc1c(NC(=O)NCc2ccccc2)c(=O)oc2ccccc12 | -6% | -10%
CCOC(=O)c1ccc(Nc2nc3nonc3nc2Nc2cccc(C)c2C)cc1 | -9% | ?
Cc1ccc(Cl)cc1NC(=O)c1sc(-n2nc(C)c(Cc3ccc4c(c3)OCO4)c2C)nc1C | -16% | -14%
CSc1nc(N)c2c3c(sc2n1)CCCC3C (stereo not given) | 6% | 120%[activator]
O=C1COc2ccc(-c3cc(-c4ccccc4)c4c(n3)-c3cc(Cl)ccc3OC4)cc2N1 | -8% | -14%
Cc1ccc(NC(=O)Cn2c(=O)n(CCCCC(=O)NCc3ccccc3Cl)c(=O)c3ccccc32)cc1C | -11% | ?
CCOCCCNCc1ccc(C)s1 | -2% | 4%
CN1CCN(c2ccc(NC(=O)c3cnc4ccccc4n3)cc2)CC1 | -11% | 128%[activator]
CC1(C)CC(=O)C2=C(C1)NC(=O)C(C#N)C2c1ccccc1 (stereo not given) | 12% | 3%
COc1cc(Cl)c(NC(=O)C2CCN(S(=O)(=O)c3c(C)noc3/C=C/c3ccccc3F)CC2)c(OC)c1 | 2% | -17%
N#Cc1cc2c(nc1SCC(=O)Nc1cccc(F)c1)C1CCN2CC1 | 11% | 137%[activator]
CCOC(=O)c1cnc2ccc(C)cc2c1Nc1ccc(C(C)=O)cc1 | 11% | -3%
Cc1c(Cl)cccc1NC(=O)c1nc2ccccc2nc1N1CCCC1 | -4% | -4%
O=C(Cc1ccc(F)cc1)Nc1c(NCC2CCCCC2)c2ccccc2oc1=O | 45%[activator] | -8%
Cc1ccc(NC(=O)C(C)Sc2ncnc3c2sc2nc4c(cc23)COC(C)(C)C4)cc1 (stereo not given) | -13% | 72%[activator]

Further results follow.
SMILES | 2A Renilla | StopGo FLuc
Cc1c(Cl)cccc1S(=O)(=O)Nc1ccc(NC(N)=O)cc1 | 0% | -14%
CC(Sc1ccccc1)C(=O)Nc1ccc(N2CCN(C)CC2)nc1 (stereo not given) | -6% | 10%
COc1ccc(Cl)cc1NC(=O)Cn1nc(Cc2ccncc2)c2ccccc2c1=O | 2%&20% | -10%&-18%
NC(=O)NNC(=S)Nc1ccc(SC(F)F)cc1 | 6% | 31%[activator]
O=C(CN1CCN(Cc2ccc(F)cc2Cl)C1=O)NCCc1ccc(Cl)cc1 | -8% | -28%
NS(=O)(=O)c1ccc(N/N=C/c2ccccc2)c([N+](=O)[O-])c1 | -11% | 0%
CC(C)c1ccc(NC(=O)c2ccc3c(O)c(S(=O)(=O)c4ccccc4)c(=O)[nH]c3c2)cc1 | -6% | -6%
CCc1ccc(NC(=O)c2ccc3nc(C(C)C)oc3c2)cc1 | 8% | 49%[activator]
O=C(NCc1ccc(Cl)cc1)c1ccc(NC(=O)N2CC3CCCN3c3ccccc32)cc1 (stereo not given) | 35%[activator] | 30%[activator]
Cc1ccc(Cl)cc1N1CCN(C(=O)c2cn(C)c3ccc(S(=O)(=O)N4CCCCC4)cc3c2=O)CC1 | -9% | -7%
COc1ccc(C2SCc3cc(C)c(C)cc3CS2)cc1 | -2% | 2%
